Source: PubChem BioAssay (Center for Chemical Genomics, University of Michigan)
TAR Tat displ – TAR RNA-Tat peptide displacers, HIV-1, primary screen, biochemical, FRET, FAM/TAMRA-labeled Tat; actives 0.6% (n = 100,000); z-score (test concentration not listed); AID 1259389, 2018; HIV-1 TAR RNA, Tat peptide displacement FRET; active compounds read high;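 also: score is relative to mean and SD of negative controls; some compounds called inactive have numbers as strong as hits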
CDC25B-CDK2 inh – primary biochemical HTRF screen for blockers of M-phase inducer phosphatase 2 binding to CDK2/cyclin A. HTRF CDC25B-CDK2/CyclinA binding, anti-His/anti-Flag; active compounds read high. actives 0.72% (n = 94,000). z-score (no concentration beside the values);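 also: score is relative to mean and SD of negative controls; strong numbers were not always called active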
* = called active by the depositor; . = no result given; & = joins results of further samples.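 The calls were made as follows: active = z-score from 3 up in half or more of its runs; inactive = the rest.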

cpd | SMILES | TAR Tat displ | CDC25B-CDK2 inh
1 | C=CCN(Cc1nc(-c2ccc(Cl)cc2)no1)S(=O)(=O)c1c(C)cc(C)cc1C | 0.72 | -1.4
2 | CCOc1ccc(/C=C/c2nc(C#N)c(N3CC(C)OC(C)C3)o2)cc1 (stereo not drawn) | -0.51 | -1.4
3 | CN(C(=O)Cn1c(-c2cncs2)nc2ccccc21)c1ccccc1 | -0.81 | -1.5
4 | Cc1ccc(-c2cn3ccc4ccccc4c3n2)cc1 | . | -2.5
5 | O=C1NN=C(c2ccccc2)/C1=C1\OC(c2ccccc2)=CS1 | . | -1.8
6 | O=C(COCc1cc(-c2ccco2)on1)NCCN1CCOCC1 | 0.71 | .
7 | CN(C(=O)c1nn(C)c2c1CSc1ccccc1-2)c1ccc(F)cc1 | 1.1 | -1.7
8 | CCCSc1nnc(N)s1 | . | -0.42
9 | CC(NC(=O)c1ccc(F)cc1)c1nc(-c2ccc(C(C)(C)C)cc2)no1 (stereo not drawn) | 2.4 | -2.6
10 | O=C(Oc1ccc(-n2cnnn2)cc1)N1CCOCC1 | . | -1.7
11 | COc1ccc(NC(=O)CN2CCCN(S(=O)(=O)c3ccc(F)cc3)CC2)cc1OC | . | -0.44
12 | CCCn1cc(S(=O)(=O)c2ccccc2)c(=O)c2cc(F)c(N3CCN(CC)CC3)cc21 | -0.1 | .
13 | CCOc1ccc(C(=O)Nc2cc(C(=O)OC)cc(C(=O)OC)c2)cc1Cl | . | -0.2
14 | COc1ccc(-n2ccc(=O)c(C(=O)Nc3nnc(SC)s3)n2)cc1 | 1.3 | -0.72
15 | Cc1ccc(-c2nc3c(c(SCC(N)=O)n2)Cc2c(CO)cnc(C)c2O3)cc1 | 1.5 | .
16 | O=S(=O)(c1cccc2nsnc12)N1CCN(C(c2ccccc2)c2ccccc2)CC1 | 1.2 | 0.88
17 | CN(C)c1scc(-c2ccccc2)c1C#N | . | -1.1
18 | Cc1ccc(CNC(=O)NCc2c(-n3cccc3)sc3c2CCCC3)cc1 | 13* | -1.2
19 | Cc1nc(Nc2cccc(F)c2)c2c3c(sc2n1)CCCC3 | 1.1 | .
20 | COC(=O)c1ccc(OC)c(CN2N=NC3C(=O)N(c4ccc(OC)c(Cl)c4)C(=O)C32)c1 (stereo not drawn) | 0.17 | -1
21 | CCN1CCN(c2oc(/C=C/c3cccc(OC)c3)nc2C#N)CC1 | 1.6 | -1.9
22 | CC(=O)Nc1c2n(c3ccccc13)CC(C)(C(=O)NC1CCCC1)N(C(C)c1ccccc1)C2=O (stereo not drawn) | 2.1 | .
23 | Cc1ccc(C(=O)Oc2cccc3cccnc23)cc1 | . | -2.1
24 | CC(C)CCNC(=O)CCc1nnc2ccc(NCc3ccco3)nn12 | 1.2 | .

An excerpt of these results, as labelled records:
5: O=C1NN=C(c2ccccc2)/C1=C1\OC(c2ccccc2)=CS1
  TAR Tat displ: .	CDC25B-CDK2 inh: -1.8
6: O=C(COCc1cc(-c2ccco2)on1)NCCN1CCOCC1
  TAR Tat displ: 0.71	CDC25B-CDK2 inh: .
7: CN(C(=O)c1nn(C)c2c1CSc1ccccc1-2)c1ccc(F)cc1
  TAR Tat displ: 1.1	CDC25B-CDK2 inh: -1.7
8: CCCSc1nnc(N)s1
  TAR Tat displ: .	CDC25B-CDK2 inh: -0.42

(cont.)
cpd | SMILES | TAR Tat displ | CDC25B-CDK2 inh
25 | COc1ccc(-c2noc(CCC(=O)Nc3ccc(C(F)(F)F)cc3)n2)cc1 | . | -0.09
26 | Cn1c(C(=O)Nc2ccc3c(c2)OCCO3)c(N2CCCC2=O)c2cc(F)ccc21 | 1.1 | .
27 | COc1ccc(C(=O)c2cn(Cc3ccccc3OC)c3ccc(OC)cc3c2=O)cc1 | 1.1 | -0.49
28 | O=C(C1=Cc2sc3c(c2CS1)CCCC3)N1CCN(Cc2ccccc2)CC1 | -0.49 | .
29 | O=C(c1cnc2ccccn12)C(F)(F)SCc1c(Cl)cccc1Cl | . | -0.71
30 | CC1=NS(=O)(=O)c2cc(C(=O)N3CCCCC3)ccc2N1CC(C)C | 1.4 | .
31 | Cc1cccn2c(=O)c3cc(C(=O)NC(C)CCc4ccccc4)n(C)c3nc12 (stereo not drawn) | 0.16 | .
32 | COc1cc2c3c(c1OC)-c1cc(OC(C)=O)ccc1CC3N(C(C)=O)CC2 (stereo not drawn) | -0.69 | -0.14
33 | Cc1ncc(CSc2nc3ccc(C(F)(F)F)cc3[nH]2)c(CO)c1O | . | -0.77
34 | COc1cccc(N2C(=O)c3cccnc3C2Nc2ccc(Cl)cc2)c1 (stereo not drawn) | 0.54 | -1.2
35 | O=C(CC1(O)C(=O)Nc2ccc(Cl)cc21)c1ccco1 (stereo not drawn) | 2.2 | .
36 | COC(=O)Cn1nnnc1-c1ccc(Cl)cc1 | . | -2
37 | CC(Oc1ccccc1)C(=O)Nc1cccc(OCc2cc(=O)n3c(ncn3C(C)C)n2)c1 (stereo not drawn) | 0.69 | -1.5
38 | COc1ccc2c(c1)SC1=NC(c3ccc(C)cc3)(C(F)(F)F)NC(=O)N12 (stereo not drawn) | . | -2.3
39 | CCOC(=O)c1c(C)oc2cc(Br)c(OC(=O)C(C)(C)C)cc12 | . | -0.52
40 | COc1ccc(C(=O)CSc2nc3ccccc3c(=O)[nH]2)cc1OC | 0.18 | -0.68
41 | COc1ccc(/C(O)=C2\C(=O)C(=O)N(CCN(C)C)C2c2ccc(OC)c(OC)c2)cc1 (stereo not drawn) | -0.01 | -2.1
42 | Cn1c(=O)oc2cc(S(=O)(=O)N3CCC(C(=O)N4CCn5c4nc4ccccc45)CC3)ccc21 | . | -1.8
43 | CN(Cc1ccccc1)S(=O)(=O)c1ccc(N2CCCCS2(=O)=O)cc1 | 0.06 | .
44 | CC1=C(C(N)=O)C(c2cccc(Br)c2)n2nc(SCc3ccccc3Cl)nc2N1 (stereo not drawn) | 3 | .
45 | COCC(C)NC(=O)C(=O)Nc1c2c(nn1-c1ccc(Cl)cc1)CSC2 (stereo not drawn) | 1.4 | .
46 | CCOC(=O)c1cncc(C#CCOC(=O)c2ccc(Cl)cc2)c1 | . | 0.67
47 | CC12CCC(=O)C=C1CCC1C2[C@@H](O)CC2(C)C1CC[C@]2(O)C(=O)COP(=O)(O)O (stereo partly drawn) | 2 | .
48 | COc1cc(C2CC(=O)NC3=C2C(=O)CC(c2ccccc2Cl)C3)cc(Br)c1O (stereo not drawn) | -0.57 | -1.2
49 | CCC1(c2ccccc2)C(=O)NCNC1=O | 1 | -0.92
50 | CC(C)c1ccc(-c2c(Nc3ccc(F)c(Cl)c3)c(=O)c2=O)cc1 | 3.9 | .
51 | C=C[C@@]1(C)CC(=O)[C@]2(O)[C@@]3(C)[C@H](O)CCC(C)(C)[C@@H]3[C@H](O)[C@H](OC(C)=O)[C@@]2(C)O1 | 0.63&0.29&0.74 | .
52 | Cc1ccc(S(=O)(=O)c2c[nH]c3cc(Cl)ccc3c2=O)cc1F | -0.65 | -3.7
53 | CCOc1ccc(CCn2c(C)c(C)c3c2ncn2nc(-c4cccnc4)nc32)cc1OCC | -0.67 | -5.4
54 | O=C(Nc1ccc2c(c1)OCCO2)N1C=CC(C(F)(F)F)=NCC1 | . | -1.4
55 | Cc1ccc2nc(C3=C(O)CN(c4cc(Cl)ccc4C)C3=N)[nH]c2c1 | 0.8 | -2.1
56 | O=C(Nc1cccc(C(=O)NC2CCCCC2)c1)C1=CSCCO1 | 2.3 | .
57 | O=C(O)CC(CC(=O)Nc1cc(C(F)(F)F)ccc1N1CCOCC1)c1ccccc1 (stereo not drawn) | . | -1
58 | Cc1nn(CC(=O)N2CCN(c3ccccn3)CC2)c(=O)c2cc3sccc3n12 | 0.35 | -0.02
59 | Cc1ccc(NS(=O)(=O)c2ccc3c(c2)NC(=O)CC(C)S3)nc1 (stereo not drawn) | 0.94 | .
60 | N#CC12C(N)=NC3(OCCO3)C1(C#N)C2c1cccc(Cl)c1 (stereo not drawn) | . | 1.5
61 | O=C(CSc1nc2ccccc2c(=O)n1CC1CCCO1)c1ccc(F)cc1 (stereo not drawn) | 0.42 | .
62 | Cc1ccc(N(C)S(=O)(=O)c2ccc(-c3ccc(=O)[nH]n3)s2)cc1C | 2.2 | .
63 | O=C1CCCC2=C1C(c1ccccc1F)c1c([nH]n(-c3ccccc3)c1=O)N2 (stereo not drawn) | 0.07 | -5.4
64 | O=C(Cn1c(=O)oc2ccccc21)Nc1nccs1 | -2.5 | .
65 | C#C[C@]1(O)CCC2C3CCC4=CC(=O)CC[C@@H]4C3CC[C@@]21C (stereo partly drawn) | 1.7 | .
66 | CCc1c(C(=O)OC)c2cc(NS(C)(=O)=O)ccc2n1S(C)(=O)=O | 0.72 | -1.8
67 | Cc1nc2ccccc2c2oc(C(=O)N3CCc4ccccc43)cc12 | 1.1 | -0.08
68 | O=c1nc2c(-c3ccccc3F)n[nH]n2c2cc(Cl)ccc12 | 2.4 | -5.5
69 | COc1cccc(Nc2nc(N3CCC(N4CCCCC4)CC3)nc3c2cnn3C)c1 | 2 | .
70 | CSc1nc(C)nc(Sc2cccc(C(F)(F)F)c2)c1C#N | . | -1.1
71 | COCCN(CCOC)c1ncnc2c1cnn2C | 2.2 | .
72 | CC(C)c1ccc(S(=O)(=O)N2CCCC(c3nc(-c4cccc(Br)c4)no3)C2)cc1 (stereo not drawn) | 2.3 | .
73 | Cc1c(-c2ccnn2C(=O)c2cccs2)cnn1-c1ccccc1 | . | 0.68
74 | CSC1=NCCN1S(=O)(=O)c1ccc2c(c1)n(C)c(=O)c(=O)n2C | 1 | -1
75 | Cc1ccc(NS(=O)(=O)c2ccc3c4c2CC(=O)N4CC(C)S3)cc1C (stereo not drawn) | -0.34 | .
76 | Cc1nc2nc(NC(=O)c3cccnc3)[nH]n2c(=O)c1C | -0.87 | -1.9
77 | O=C1CCCc2cc(S(=O)(=O)N3CCCC(C(=O)N4CCc5ccccc5C4)C3)ccc2N1 (stereo not drawn) | -0.06 | .
78 | CN1CCN(CCNC(=O)CCCn2sc3ccccc3c2=O)CC1 | 0.46 | -1.8
79 | Cc1ccc(N2CCN(c3ncnc4c3nc3n4CCCCC3)CC2C)cc1 (stereo not drawn) | 0.24 | .
80 | Cc1nc(NC(=O)c2cc(-c3cccs3)on2)sc1C(=O)OCC(C)C | 1.2 | -0.19
81 | Cn1cc(S(=O)(=O)N2CCCC2)cc1C(=O)N1CCc2ccccc2C1 | -0.24 | .
82 | COc1ccccc1C1NC(C(=O)O)Cc2c1[nH]c1ccccc21 (stereo not drawn) | -0.95 | .
83 | O=C1c2cccnc2C(=O)N1CCc1ccc(S(=O)(=O)NCc2ccccc2)cc1 | 0.2 | .
84 | O=C(CCCN1C(=O)c2ccccc2Sc2ncccc21)NC1CCCC1 | -0.86 | .

2 compounds drawn at random from the list so far:
cpd | SMILES | TAR Tat displ | CDC25B-CDK2 inh
9 | CC(NC(=O)c1ccc(F)cc1)c1nc(-c2ccc(C(C)(C)C)cc2)no1 (stereo not drawn) | 2.4 | -2.6
77 | O=C1CCCc2cc(S(=O)(=O)N3CCCC(C(=O)N4CCc5ccccc5C4)C3)ccc2N1 (stereo not drawn) | -0.06 | .

Next part
cpd | SMILES | TAR Tat displ | CDC25B-CDK2 inh
85 | CCCSc1ncccc1C(=O)Nc1cccc2nonc12 | . | -0.91
86 | N=c1ccc(Br)cn1CC(N)=O | . | 2.8
87 | CCc1nn(C(C)C(=O)NCCC2=CCCCC2)c(=O)c2cc3occc3n12 (stereo not drawn) | -1.2 | -0.37
88 | Cc1nnc2sc(SCC(=O)N(c3ccccc3)C(C)C)nn2c1=O | 0.04 | .
89 | O=C(CCn1c(=S)[nH]c2cc3c(cc2c1=O)OCO3)NCCN1CCCC1 | . | -1
90 | O=C(O)COCC(=O)Nc1cnccn1 | . | -0.98
91 | Cc1cc(=O)[nH]c(SCc2cc(=O)c3ccccc3[nH]2)n1 | 0.76 | .
92 | [O-]/C(=N\C(=C\c1ccc(F)cc1)[P+](c1ccccc1)(c1ccccc1)c1ccccc1)c1ccccc1 | . | -0.29
93 | CCCn1c(=O)c(/C(N)=N/O)nn(-c2ccccc2)c1=O | . | -1.2
94 | CC1CCN(c2ncc3c(n2)CCN(Cc2ccc(Br)cc2)C3)CC1 | -0.18 | .
95 | CCOP(=O)(OCC)C(OC(N)=O)c1ccc(C(OC(N)=O)P(=O)(OCC)OCC)cc1 (stereo not drawn) | . | -1.4
96 | O=C1CSc2ccc(S(=O)(=O)N3CCOCC3)cc2N1Cc1cccnc1 | -1.3 | .
97 | CC1CCN(CC2CCN(C(=O)Nc3ccc(Br)cc3)CC2)CC1 | 1.2 | .
98 | CC1CCCC(C)N1CCCNc1ncnc2onc(-c3ccc(F)cc3)c12 (stereo not drawn) | 0.16 | .
99 | CC(C)c1ccc(OC(=O)c2cc(-c3cccs3)on2)cc1 | 1.4 | -0.11
100 | CC(CS(=O)(=O)c1ccc2c(c1)NC(=O)C(C)S2)C(=O)NC1CCCC1 (stereo not drawn) | -0.13 | .
101 | COc1c(CC(=O)c2cc3c(cc2O)OC(C)(C)C(O)C3)ccc2c1C=CC(C)(C)O2 (stereo not drawn) | -1.3 | .
102 | C=CCn1c(-c2cnn(-c3ccccc3)c2N)n[nH]c1=S | . | -1.2
103 | CC(C)Cc1nc(SCC(=O)c2ccccc2)n[nH]1 | 2 | -1.2
104 | Cc1ccc(COc2ccc3c(C)cc(=O)oc3c2)cc1 | . | -0.97
105 | O=S(=O)(Nc1cccc(N2CCCS2(=O)=O)c1)c1cc(F)ccc1F | -0.75 | .
106 | NC1=NC(=O)C(C2(O)C(=O)Nc3ccccc32)S1 (stereo not drawn) | 0.33 | .

2 entries from above in another layout.
98) CC1CCCC(C)N1CCCNc1ncnc2onc(-c3ccc(F)cc3)c12 (stereo not drawn)
99) CC(C)c1ccc(OC(=O)c2cc(-c3cccs3)on2)cc1

Assay by compound	98	99
TAR Tat displ	0.16	1.4
CDC25B-CDK2 inh	.	-0.11
